Bst PK mod = Pyruvate Kinase. actives 1.2% (n = 51,000). partly purified Bacillus stearothermophilus pyruvate kinase, luminescence ATP production; ribose 5-phosphate activator present at AC10. AID 361, 2006. Potency, µM; in the data active means potency below about 11 µM; inconclusive means mostly about 12 µM to 25 µM; inactive means weaker than that;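 the screen sought inhibitors and activators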;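 further: potency means the concentration at half of the fitted maximal effect; scaled between full activation by ribose 5 phosphate and full inhibition by luteolin; about four in five hits inhibit and the cells do not say which; series up to 57 µM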
TsaE inh = qHTS Assay for Inhibitors of YjeE; tRNA threonylcarbamoyladenosine biosynthesis protein TsaE (Escherichia coli (strain …; purified YjeE, fluorescence polarisation of a bound ADP probe; Potency, µM; actives 0.05% (n = 71,000); AID 605, 2007; active = well fitted falling curve; inconclusive = weaker or top-dose-only fall, or a rising curve; inactive = flat or poorly fitted curve;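 further: top concentration of the series not given in the record; excess ADP was the control for the full effect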
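Purified YjeE (10 uM) with BODIPY Texas Red-labeled ADP probe (2 uM); compounds pin-transferred, 15 min at room temperature. Binding inhibition read as decreased fluorescence polarization; ADP titration as control.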
* = called active by the depositor; i = inactive; ? = inconclusive; / = no result given. Not all compounds are listed; count on the stated rates, not on these rows.

The line under a structure holds: Bst PK mod	TsaE inh
> CCN1c2ccccc2-c2nc3ccccc3n2C1c1ccccn1 (configuration not stated)
→ >57	i
> C=CC(=O)OCCCCCCOC(=O)C=C
→ /	i
> CC(C)(C)C(=O)NC1CCN(C(=O)N2CCCC2)CC1
→ >57	i
> CCCCCn1c(=O)[nH]c2c(c1=O)CCC2
→ >57	i
> CCOCCn1c(-c2ccc(OC)cc2)nc2ccccc21
→ /	i
> O=C(CSc1cccc2cccnc12)NCc1ccco1
→ >11	i
> Cc1cc(N2C3CCC2CC(O)(c2ccc(F)cc2)C3)nc(-c2ccccc2)n1 (configuration not stated)
→ >57	i
> O=C(CN1C(=O)NC2(CCCCC2)C1=O)Nc1ccccc1Cl
→ >57	i
> CC(=O)c1cc2c(cc1N)OCO2
→ >57	i
> N=c1n(CCN2CCOCC2)c2ccccc2n1Cc1ccccc1Br
→ >57	i
> CC(=O)OCC[N+](C)(C)C
→ >26	/
> O=C1c2ccccc2C(=O)N1CCCSc1nc2ccccc2o1
→ /	i
> CCOC(=O)C1C2C=CC3(CN(CCc4ccccc4)C(=O)C13)O2 (configuration not stated)
→ >57	i
> Cc1ccc2nc(-c3cccc(NC(=O)c4ccco4)c3)[nH]c2c1
→ 6.4*	i
> COCCCNC(=O)CN(c1cc(OC)ccc1OC)S(=O)(=O)c1ccccc1
→ >57	i
> Cc1cccc(OCCCN2CCCCCC2)c1
→ >57	i
> COCc1cc(C)nc(N)c1C#N
→ >26	/
> COc1cc(C2C(C(=O)c3ccco3)=C(O)C(=O)N2CCc2ccccc2)ccc1O (configuration not stated)
→ >57	i
> COc1cccc2c(=O)n(CC(=O)NC3CCCC3)ccc12
→ /	i
> O=C(NCC1CCCO1)c1cc(-c2ccco2)nc2ccccc12 (configuration not stated)
→ >57	i
> CN1CCN(C(=O)c2ccc3c(c2)N(Cc2cccc(Cl)c2)C(=O)c2ccccc2S3=O)CC1 (configuration not stated)
→ /	i
> O=C(Nc1cccnc1)c1ccc(CN2CCc3ccccc3C2)cc1
→ /	i
> S=C(Nc1ccc2c(c1)Cc1ccccc1-2)Nc1ccc2c(c1)Cc1ccccc1-2
→ /	i
> O=C(Nc1cccc(-c2cn3cccnc3n2)c1)c1ccco1
→ /	i
> COc1ccc(-n2nc3ccc(NS(C)(=O)=O)cc3n2)cc1Cl
→ >57	i
> COc1ccc(-n2c(=O)c3c4c(sc3n(CC(=O)NCc3ccco3)c2=O)CCC4)c(OC)c1
→ >57	i
> Cc1ccc(CNc2nc3ccccc3n3nnnc23)cc1
→ >57	i
> Cc1ccc(N(C(=O)CC2NC(=O)NC2=O)C2(C(=O)NC3CCCC3)CCCCC2)cc1 (configuration not stated)
→ >57	i
> O=C(Nc1cccnc1)c1cc(-c2ccc(Br)cc2)on1
→ /	i
> CCOC(=O)Cn1c(=O)n(C2CCCC2)c(=O)c2ccccc21
→ >57	i
> Cc1ccc2c(c1)C1CCCC3C1N2CC(=O)N3Cc1ccccc1 (configuration not stated)
→ /	i
> CN(CCc1ccccn1)Cc1ccc(Cl)cc1
→ >57	i
> Cc1nn(C)c(C)c1S(=O)(=O)NC1CCCc2ccccc21 (configuration not stated)
→ >57	i
> Cc1cc(C(C)(C)C)cc(CNC2CCCCC2)c1O
→ /	i
> O=C(OC1CCOC1=O)c1cncc(Br)c1 (configuration not stated)
→ >57	i
> Cc1sc2ncnc(SCC(=O)N3CCCC3=O)c2c1C
→ >57	i
> Cc1ccc(Nc2nc(C(=O)NCCCN3CCOCC3)cs2)cc1
→ >57	i
> Cc1occc1C(=O)Nc1ccc2ccccc2c1
→ /	i
> Cc1cc(C)c(C#N)c(N2CCSCC2)n1
→ >57	i
> COc1ccc(CCN2C(=O)c3[nH]nc(-c4ccccc4O)c3C2c2cccc(O)c2)cc1OC (configuration not stated)
→ >57	i
> CNC(=O)C1CC(=O)N(Cc2ccccc2)C(=Nc2ccc(OC)cc2)S1 (configuration not stated)
→ >26	/
> Cc1ccc(C)n1NC(=O)c1ccc(Cl)cc1Cl
→ >57	i
> N#CCSc1nnc(-c2cccnc2)n1-c1ccccc1
→ >57	i
> CC1(C)C2CCC1(C)C(OC(=O)CCn1ccnc1)C2 (configuration not stated)
→ >57	i
> CCOC(=O)c1c(C)c(C(=O)N2CCCCCC2)c(C)n1CC
→ >57	i
> Cn1c(=O)c(-c2cc(F)cc(F)c2)nc2cncnc21
→ /	i
> COc1ccc(N2CC(C)Cn3c2nc2c3c(=O)n(CCc3ccccc3)c(=O)n2C)cc1 (configuration not stated)
→ >57	i
> CC(C)CC(NS(=O)(=O)c1ccc2c(c1)oc(=O)n2C)C(=O)N1CC=C(c2ccccc2)CC1 (configuration not stated)
→ /	i
> Cc1ccc(CCNC(=O)CC2Oc3ccc(C)cc3NC2=O)cc1 (configuration not stated)
→ /	i
> COC(=O)C1(C(=O)OC)Sc2ccccc2C1=O
→ >57	i
> COc1ccc(-n2c(=S)[nH]c3cc(C(=O)NCCCN4CCCC4=O)ccc3c2=O)cc1
→ >57	i
> COc1ccc(C(=O)N2CCN(c3ccc(C)cc3)CC2)cc1OC
→ /	i
> O=C(Cn1nc(C(F)(F)F)c2c1CCCC2)NCc1ccco1
→ >57	i
> Cc1nn(-c2ccccc2)c2c1/C(=N/O)CC(C)(C)C2
→ >57	i
> Cc1ccc(-n2c(Cc3cccn3C)nnc2SCC(=O)NCc2ccco2)cc1
→ >57	i
> Cc1cccc(NC(=O)c2oc3c(c2C)C(=O)CC(C)(C)C3)n1
→ >57	i
> COc1ccc(OCCOC(=O)Nc2ccccc2)cc1
→ /	i
> COc1ccc(NC2=NC3(CCCCC3)N=C(N)N2)cc1
→ >57	i
> Cn1cccc1C(=O)N1CCC2(CCCN(c3ccccc3)C2)CC1
→ /	i
> Cc1nc2cc(C(F)(F)F)ccc2n1C1CCN(CC(=O)N2CCOCC2)CC1
→ >57	i

Five records picked at random from the list so far:
The line under a structure holds: Bst PK mod	TsaE inh
> COC(=O)C1(C(=O)OC)Sc2ccccc2C1=O
→ >57	i
> CC(C)CC(NS(=O)(=O)c1ccc2c(c1)oc(=O)n2C)C(=O)N1CC=C(c2ccccc2)CC1 (configuration not stated)
→ /	i
> COc1ccc(NC2=NC3(CCCCC3)N=C(N)N2)cc1
→ >57	i
> COc1ccc(-n2c(=S)[nH]c3cc(C(=O)NCCCN4CCCC4=O)ccc3c2=O)cc1
→ >57	i
> Cc1nc2cc(C(F)(F)F)ccc2n1C1CCN(CC(=O)N2CCOCC2)CC1
→ >57	i

(listing goes on)
The line under a structure holds: Bst PK mod	TsaE inh
> Brc1ccc(-c2nnc3ccc(N4CCN(c5ccccc5)CC4)nn23)cc1
→ /	i
> CCCOC(=O)c1sc2nc3c(cc2c1N)C(=O)CCC3
→ >57	i
> OCCOCCn1c2ccccc2c2ccccc21
→ >57	i
> COc1cccc(C(=O)Nc2cccc(OC(C)=O)c2)c1
→ /	i
> Cc1[nH]c(=O)[nH]c(=O)c1S(=O)(=O)Nc1ccc(Oc2ccccc2)cc1
→ >57	i
> COc1cccc(-n2c(SCC(=O)N3CCOCC3)nc3c([nH]c4ccccc43)c2=O)c1
→ >57	i
> O=C(Nc1ccccc1NC(=O)c1ccco1)c1ccco1
→ /	i
> COCc1cc(=O)n2[nH]c(-c3ccccc3)cc2n1
→ /	i
> O=C(NCc1cccs1)C1CCCN1C(=O)NC1CCCCC1 (configuration not stated)
→ >57	i
> CCCc1[nH]nc2c1C(c1ccc(OC)c(Cn3nnc4ccccc43)c1)C(C#N)=C(N)O2 (configuration not stated)
→ >57	i
> O=C(O)C1CCCCN1S(=O)(=O)c1cccc2nsnc12 (configuration not stated)
→ i	/
> O=S(=O)(c1cccc(S(=O)(=O)N2CCC(N3CCCCC3)CC2)c1)N1CCOCC1
→ >57	i
> FC(F)(F)c1ccccc1-c1ccc2ncnc(NCCN3CCOCC3)c2c1
→ /	i
> COc1cccc2c1N1C(=O)c3c(C(=O)O)cccc3C1CC2(C)C (configuration not stated)
→ /	i
> CCOC(=O)C(C)Sc1nnc(Cn2c(=O)sc3ccccc32)n1-c1ccccc1 (configuration not stated)
→ /	i
> O=C(CSc1nccn1-c1ccccc1)Nc1ccc2c(c1)OCO2
→ >57	i
> Cc1noc(C)c1-c1cncnc1N1CCN(C)CC1
→ /	i
> CCCCCOC(=O)Nc1nnc(CCC)s1
→ /	i
> COCCNC(=O)c1ccc(Cn2c(=S)[nH]c3cc4c(cc3c2=O)OCO4)cc1
→ >57	i
> C=CCn1c(C)cc(C(=O)CSc2nnc(Cc3ccccc3)o2)c1C
→ >57	i
> CC1(c2ccc3c(c2)OCO3)NC(=O)N(CC(=O)Nc2ccc(N3CCOCC3)cc2)C1=O (configuration not stated)
→ >57	i
> CCN1CCN(c2nc3ccccc3nc2C(C#N)C(=O)OC2CCCCC2)CC1 (configuration not stated)
→ /	i
> CS(=O)(=O)N1CCCC(C(=O)NCc2ccccn2)C1 (configuration not stated)
→ >57	i
> COCCn1cnnc1SCC(=O)Nc1ccccc1C(=O)Nc1ccc2c(c1)OCO2
→ >57	i
> FC(F)(F)c1ccccc1-c1cc(N2CCNCC2)ncn1
→ /	i
> CCC(=NC(C)c1ccccc1)c1c(O)n(C)c(=O)n(C)c1=O (configuration not stated)
→ >57	i
> O=C(Cc1ccccc1)Nc1ccc(C(=O)O)cc1
→ >57	i
> Nc1nnnn1/N=C/c1cccc(Oc2ccccc2)c1
→ >11	/
> CCOC(=O)CN1C(=O)NC(C)(c2ccc(OC(F)F)cc2)C1=O (configuration not stated)
→ >57	i
> O=S(=O)(NCc1ccccc1Br)c1cccs1
→ /	i
> CSc1nc(N2CCOCC2)c2c3c(sc2n1)CCCC3
→ >57	i
> CN(C(=O)CN(CCO)CC(=O)N(C)C(C)(C)Cc1ccccc1)C(C)(C)Cc1ccccc1
→ /	i
> CC1CCC(NC(=O)Cn2ncc3ccccc32)CC1 (configuration not stated)
→ /	i
> c1ccc2c(N3CCCC3)nc(-c3ccncc3)nc2c1
→ i	i
> O=c1cc(N2CCOCC2)[nH]c(=O)n1Cc1ccc(F)cc1
→ /	i
> CCCOc1cccc(-c2nnc(N)s2)c1
→ >26	/
> Cc1nc(SCC(=O)NCc2ccco2)c2c(C)c(C)sc2n1
→ >57	i
> COc1ccc(N(CC(=O)Nc2ccc3c(c2)OCCO3)S(=O)(=O)c2c(C)nn(C)c2C)cc1
→ /	i
> c1ccc(-n2ncc3c(N4CCN(c5ccccn5)CC4)nc(N4CCOCC4)nc32)cc1
→ >57	i
> Cc1ccc(-c2csc3ncnc(OCC(=O)NC(=O)NCc4ccco4)c23)cc1
→ /	i
> COC(=O)CNC(=O)C1(C)C=CC2(CCCCC2)N1C(=O)OC (configuration not stated)
→ /	i
> COc1ccccc1NC(=O)Nn1cnnc1
→ >57	i
> Nc1cc(N)nc(SCc2ccccc2)n1
→ >57	i
> CC(C)(C)C(=O)Nc1ccccc1C(=O)Nc1cccnc1
→ /	i
> COc1ccc(O)c(/C=c2/sc3nc4cc(C)c(C)cc4n3c2=O)c1
→ >57	i
> Cc1onc(-c2c(F)cccc2Cl)c1C(=O)N1CCc2ccccc2C1
→ /	i
> CCCn1cc(NC(=O)c2cc3n(n2)C(C(F)(F)F)CC(c2ccccc2)N3)cn1 (configuration not stated)
→ >57	i
> Cc1noc(C)c1C(=O)N1CCC[C@@]2(CCN(c3ncccn3)C2)C1
→ /	i
> O=C(CN1CCC(c2nc3ccccc3[nH]2)CC1)Nc1ccc2c(c1)OCO2
→ >57	i
> O=C(Cc1ccccc1)Nc1nnc(-c2cccs2)s1
→ >57	i
> COc1ccccc1N1C(=O)CC(Sc2nccc(C)n2)C1=O (configuration not stated)
→ ?	i
> CC(C)Sc1nc2ccccc2n1CC(N)=O
→ /	i
> CCOc1ccc(NC(=O)c2ccccc2O)cc1
→ 2.5*	i
> COc1cccc(C2C(C#N)=C(N)Oc3cc(C)oc(=O)c32)c1OC (configuration not stated)
→ /	i
> CC1CCCC(NC(=O)CCn2c(=O)oc3ccccc32)C1C (configuration not stated)
→ >57	i
> COc1ccc(NC(=O)NCCCN2CCCCC2C)cc1 (configuration not stated)
→ >57	i
> COc1ccc(C2(C(F)(F)F)NC(=O)N(C)C(=O)N2C)cc1 (configuration not stated)
→ >57	i
> O=C(Nc1cc(N2CCOCC2)ncn1)c1ccccc1
→ >57	i
> O=C(C1CCN(S(=O)(=O)c2cccc3nsnc23)CC1)N1CCn2c1nc1ccccc12
→ ?	i
> c1ccc(CNc2nc3ccccc3[nH]2)cc1
→ ?	i

(cont.)
The line under a structure holds: Bst PK mod	TsaE inh
> O=C(COc1ccccc1)N1CCN=C1c1ccccc1
→ >57	i
> O=C(CSc1nnc(C2COc3ccccc3O2)o1)N1CCCc2ccccc21 (configuration not stated)
→ >57	i
> CCOC(=O)COc1ccc(S(=O)(=O)NCc2cccnc2)cc1
→ >57	i
> COCCCn1c(SCC(=O)Nc2ccc3c(c2)OCCO3)nnc1-c1ccoc1C
→ >57	i
> O=C(Cn1cnc2ccccc21)NCc1ccccc1
→ >57	i
> O=c1c(O)c(-c2ccc(O)cc2O)oc2cc(O)cc(O)c12
→ i	i
> COc1ccc(-n2c(Cc3cc(=O)[nH]c(=O)[nH]3)nnc2SCC(=O)N2CCCC2)cc1
→ /	i
> CN1CCCCc2c1[nH]c1ccccc1c2=O
→ /	i
> COCCOC(=O)C1=C(C)Nc2nc(C)nn2C1c1ccc(F)cc1 (configuration not stated)
→ >57	i

High-throughput results as filed in PubChem BioAssay.
